RE007 growth inh: qHTS Assay for Inhibitors of the HIV-1 protein Vpr; S. pombe RE007 Vpr strain, BacTiter-Glo ATP luminescence, 24 h; control for the full effect not named in the record; Potency, µM (top dose mostly 92.2 µM), inactives show at the highest dose activity change, negative = less growth; 0.21% of 360,000 active; active = well fitted falling curve with a large enough effect; inconclusive = small, poorly fitted or top-dose-only effect; inactive = no such curve, though single readings can be large or run the other way;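 note: nearly all actives have a fitted effect of over 50% in size; the assay follows cell death caused by Vpr and the record does not say whether a fall means rescue or toxicity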
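Fission yeast RE007 carrying one integrated HIV-1 vpr copy, seeded at OD 0.01 in PMG+AL medium with 23 nL pinned compound. Grown 24 h at 30 degrees; viability read by BacTiter-Glo luminescence after 5 min.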
StopGo reporter: High Throughput Screening for Foot and Mouth Disease Virus Antivirals. human cells with a luciferase reporter of 2A StopGo recoding; control for the full effect not named in the record. Potency, µM (series often up to 57.9 µM), for the others: top-dose signal change, negative = less light. 1.2% of 410,000 active. AID 1159524, 2015; active = well fitted falling curve with a large enough effect; inconclusive = small, poorly fitted or top-dose-only effect; inactive = no such curve, though single readings can be large or run the other way; tested in HEK293T cells; note: nearly all actives have a fitted effect of over 45% in size; luciferase light after 4 h
Starred values were filed as active, the others as inactive; ? = inconclusive; [ ] = dose if it differs, or a comment. % is set by controls: 0 for no effect and ±100 for the full control effect; potency is the fitted concentration of half-maximal effect. An excerpt; rates above refer to the full screens.

SMILES	RE007 growth inh	StopGo reporter
CCCCn1c(N)c(N(CCOC)C(=O)CC(NC(=O)c2ccccc2Cl)c2ccccc2)c(=O)[nH]c1=O (stereo not drawn)	9%	-21%
COC(=O)[C@@]1(Sc2ccc(C)cc2)CC(=O)N[C@@H]1c1ccco1	6%	5%
CC(C)(O)C#Cc1cccc(-c2nc(C(=O)NCCCN3CCOCC3)cc3c2[C@H](CCO)N(S(=O)C(C)(C)C)C3)c1 (stereo partly drawn)	0%	-16%
CC1(C(=O)Nc2ccc3c(c2)OCCO3)CCN1C(=O)C1(c2ccc(Cl)cc2)CCC1 (stereo not drawn)	-14%	?
CCOC(=O)N1CCc2c(sc(NC(C)=O)c2C(N)=O)C1	2%	-20%
CC(O)(c1cccnc1)c1nc(-c2ccc3ccccc3c2)cs1 (stereo not drawn)	4%[18.4 µM]	-12%
CCc1nc2c(OCC(=O)C(C)(C)C)cccn2c1N(C)C(=O)CC(C)C	-17%	-26%
CCN(CC)CCOc1ccc(-c2c(C)c3c(ccc4ccccc43)oc2=O)cc1	-7%	-10%
COc1cccc(CN2CCC2(C)C(=O)Nc2cccc(Oc3ccccc3)c2)c1OC (stereo not drawn)	-11%[18.4 µM]	-28%
O=C1c2ccccc2C(c2nnnn2Cc2ccccc2)N1Cc1ccc(F)cc1 (stereo not drawn)	11%	15%
CCOC(=O)c1cc(-c2sc(NC(=O)c3ccccc3)nc2C)n(-c2ccc(Br)cc2)n1	6%	16%
COc1cccc(C2=CC(=O)CC(C)(C)C2)n1	3%	-20%
COc1ccc(OC)c(S(=O)(=O)NC(=O)C2(C)CCN2C(=O)Cc2ccc(Cl)cc2Cl)c1 (stereo not drawn)	-28%	-7%
N#Cc1cccnc1N1CCN(C(C(=O)NC2CCCC2)c2ccco2)CC1 (stereo not drawn)	12%	-8%
CC1NC(=O)c2cc3ccccc3cc2-n2c1nc1cc(Cl)ccc1c2=O (stereo not drawn)	0%	?
CCCCC(=O)O	14%	-11%
Cc1csc(SCC(=O)Nc2cc(F)ccc2C)n1	-7%	0%
CCCNC(=O)C1(C)CCN(C(=O)Cc2ccc(OC)c(OC)c2)C1 (stereo not drawn)	-16%[18.4 µM]	-10%
COc1ccc(CNC(=O)[C@H](Cc2ccccc2)NC(=O)CC[C@H]2O[C@@H](n3ccc(=O)[nH]c3=O)[C@H](O)[C@@H]2O)cc1	1%	-18%
CC1(C(=O)Nc2ccc3[nH]ncc3c2)CCN1C(=O)Cc1ccc(-c2ccccc2)cc1 (stereo not drawn)	3%	40µM*
O=C(Nc1cccc(S(=O)(=O)N2CCCC2)c1)[C@@H]1O[C@H](CO)[C@H](O)[C@H](O)[C@H]1O	3%[18.4 µM]	-20%
CC1(C(=O)NS(C)(=O)=O)CCN1C(=O)Cc1ccc(-c2ccccc2)cc1 (stereo not drawn)	8%[18.4 µM]	-14%
CCOC(=O)c1cccc(OS(=O)(=O)Cc2ccccc2)c1	-15%	24%
O=C(Nc1cccnc1)C1Cc2c(-c3ccccc3Oc3ccccc3)ccnc2O1 (stereo not drawn)	11%	?
CC(C)C1CC2=C(C(=O)OC(C)(C)O2)C(c2ccc(Cl)cc2)O1 (stereo not drawn)	-10%	0%
Cc1ccc(S(=O)(=O)N2[C@H](CC(=O)OCc3ccccc3)OC[C@@H]2C(C)C)cc1	-4%	-7%
CC(=O)c1cccc(-c2ccnc3c2CC(C(=O)NCc2ccc(F)c(F)c2)O3)c1 (stereo not drawn)	5%	-11%
CN(C)Cc1csc(NC(=O)Nc2ccccc2Cc2ccccc2)n1	-8%	-9%
CCc1nc2ccc(C(=O)NCCOc3ccc(OC)cc3)cn2c1N(CCN(C)C)CC1CC1	-25%[18.4 µM]	-18%
CC1(C)CC[C@@]23CC[C@]4(C)[C@@](OC2=O)(C3C1)[C@H]1O[C@H]1C1[C@@]2(C)CC[C@H](O)C(C)(C)C2CC[C@]14C (stereo partly drawn)	-4%	-8%
Cc1ccc(Nc2nc(NCC3CC3)nc3ccsc23)c(C)c1	-20%	?
Cc1ccc(C(=O)OCC(=O)NC2CCCC(C)C2C)s1 (stereo not drawn)	2%	7%
Cc1ccc(OCC(=O)Nc2ccc3c(c2)nc(CCN2CCN(c4ccccn4)CC2)n3C)cc1	-10%	3.5µM*
CC1CC(C)(C)CC2(C1)NC(=O)N(CC(=O)N1CCN(S(=O)(=O)c3ccc(F)c(F)c3F)CC1)C2=O (stereo not drawn)	9%	-19%
CC(C)(C)OC(=O)N1Cc2cc3ccccc3nc2C1	-9%	27%
Cc1ccc(S(=O)ONc2cccc(NOS(=O)c3ccc(C)cc3)c2)cc1 (stereo not drawn)	-8%	21%
COc1ccc(C(C)(O)c2nc(-c3ccccc3OC)cs2)cc1 (stereo not drawn)	-25%	-17%
O=C(/C=C/[C@H]1O[C@@H](n2ccc(=O)[nH]c2=O)[C@H](O)[C@@H]1O)NCc1cccc2ccccc12	11%	-14%
C#CCN(C[C@H]1[C@H](OC(=O)NC2CCCC2)[C@H](OC(=O)NC2CCCC2)C[C@H]2C(=O)N(c3ccccc3)C(=O)[C@@H]12)S(=O)(=O)c1ccc(C)cc1	-3%	?
CCOC(=O)[C@]12Cc3ccccc3[C@H]1N(C)C(=O)c1cc(OC)ccc12	17%	?
C#CCn1c2ccccc2c(=O)n1CCOc1ccccc1OC	-7%	-6%
COc1ccccc1-c1cc(NC=O)c2ncc(-c3cccc(C(=O)N(C)C)c3)n2c1	-23%	?
COc1cc(OC)c(OC)cc1/C=C/C(=O)OCC(=O)Nc1c(C)n(C)n(-c2ccccc2)c1=O	-13%	-16%
CCCNC(=O)N(C)C[C@@H]1Oc2cc(C#CC(C)(C)O)ccc2S(=O)(=O)N([C@H](C)CO)C[C@H]1C	-7%	-21%
CC1=C(C(=O)N2CCOCC2)CC(CC(=O)NCc2ccco2)C(=O)N1Cc1ccc(C(C)(C)C)cc1 (stereo not drawn)	8%	-11%
COc1ccc(NC(=O)C2(C)Cc3c(-c4ccc5c(c4)OCO5)ccnc3O2)cc1 (stereo not drawn)	-17%	-5%
O=C1[C@H]2[C@@H](c3ccc(C(F)(F)F)cc3)N[C@]3(CCCN(Cc4ccc(F)cc4)C3=O)[C@H]2C(=O)N1Cc1ccccc1	-9%	-24%
CN(CCc1ccccc1)C(=O)c1cccc(NC(=O)Cc2cccc(NC(=O)C3CCCN(C(=O)C4CCC4)C3)c2)c1 (stereo not drawn)	7%	?
S=C1SC2(CCCCCC2)NC2=C1CCCCC2	14%	?
CC(C)NC(=S)NNc1ncnc2sc3c(c12)CC(C)(C)OC3	-2%	-21%

Additional records
SMILES	RE007 growth inh	StopGo reporter
CC1=C(C(=O)N2CCOCC2)CC(CC(=O)NCc2cccs2)C(=O)N1Cc1ccc(F)cc1 (stereo not drawn)	-23%	-16%
COc1ccc(NS(=O)(=O)c2cc(C(=O)N(C)CCc3ccccn3)ccc2Cl)cc1	4%	26%
CCCN(CC1CC1)C(=S)NC(=O)c1ccccc1C	5%	-14%
CNC(=O)c1ccc(CN(C)C(=O)/C=C/c2ccc(S(=O)(=O)N3CCCCCC3)cc2)cc1	1%	?
CCOP(=O)(OCC)C(Cc1ccccc1)N=C(c1ccccc1)c1ccccc1 (stereo not drawn)	-13%[18.4 µM]	-17%
CCCCCCCCC(c1nc2ccccc2[nH]1)N1CCN=C(c2ccccc2)C1=O (stereo not drawn)	-7%	?
CCCNC(=O)C1(C)CCCN(C(=O)c2cc(C)n(C(C)(C)C)n2)C1 (stereo not drawn)	7%[18.4 µM]	-12%
COc1ccccc1-c1n[nH]nc1C1=CC(=O)CC(C)(C)C1	-7%	-14%
CCOC(=O)Nc1ccc2nc(-c3cscn3)[nH]c2c1	-10%	25%
CCOC(=O)C1(C)CCN1C(=O)c1ccc(C(=O)OC)cc1 (stereo not drawn)	22%	1%
CC(=O)Nc1ccc(-c2ccnc3c2CC(C(=O)Nc2cccnc2)O3)cc1 (stereo not drawn)	0%[18.4 µM]	-7%
O=[N+]([O-])c1ccc(-c2nc(Cl)c3c(n2)CCCC3)o1	-19%	-25%
COc1ccc(-c2coc3c(C(=O)NCc4ccccc4)cccc23)c(C)c1	6%[18.4 µM]	-19%
O=C(COC(=O)/C=C/c1ccc2ccccc2n1)NNC(=O)c1ccccc1	-9%	-7%
COc1ccc(C)c2sc(N(CCN(C)C)C(=O)c3ccc(S(=O)(=O)N(C)c4ccccc4)cc3)nc12	0%	-27%
CCOC(=O)CC1(C)Oc2cc(Cl)ccc2N1S(=O)(=O)c1ccc(C)cc1 (stereo not drawn)	0%	-27%
CCN(CC(=O)Nc1ccccc1C(F)(F)F)C(=O)c1ccc2c(c1)NC(=O)C(C)S2 (stereo not drawn)	-3%	?
COc1ccc(N=C(C)C2C(=O)c3ccccc3C2=O)cc1	8%	-38%
CCCCn1c(N)c(N(CCOC)C(=O)COC(=O)CNC(=O)c2ccc(Cl)c(Cl)c2)c(=O)[nH]c1=O	-8%	-8%
CC(=O)Nc1cc(-c2cccc(NS(C)(=O)=O)c2)cn2c(-c3cccc(C(F)(F)F)c3)cnc12	2%	-26%

Entries of single compounds from above. Order of values: RE007 growth inh | StopGo reporter
Shown for `Cc1ccc(S(=O)ONc2cccc(NOS(=O)c3ccc(C)cc3)c2)cc1` (stereo not drawn) : -8% | 21%
Shown for `CC(C)(C)OC(=O)N1Cc2cc3ccccc3nc2C1` : -9% | 27%
Shown for `COc1ccc(CNC(=O)[C@H](Cc2ccccc2)NC(=O)CC[C@H]2O[C@@H](n3ccc(=O)[nH]c3=O)[C@H](O)[C@@H]2O)cc1` : 1% | -18%
Shown for `CC1(C(=O)NS(C)(=O)=O)CCN1C(=O)Cc1ccc(-c2ccccc2)cc1` (stereo not drawn) : 8%[18.4 µM] | -14%
Shown for `COc1ccc(C)c2sc(N(CCN(C)C)C(=O)c3ccc(S(=O)(=O)N(C)c4ccccc4)cc3)nc12` : 0% | -27%

The list goes on.
SMILES	RE007 growth inh	StopGo reporter
CCc1ccc(C(O)c2ncc(-c3ccccc3F)[nH]2)cc1 (stereo not drawn)	-15%	85%[activator]
C[C@H]1CN([C@@H](C)CO)S(=O)(=O)c2ccc(Br)cc2O[C@@H]1CN(C)C(=O)C1CCOCC1	4%	0%
CC1=C(C(=O)N2CCOCC2)CC(CC(=O)NC(c2ccccc2)c2ccccc2)C(=O)N1Cc1ccc(F)cc1 (stereo not drawn)	2%	?
CCCCC(=O)N(C)c1c(C)nc2ccc(C(=O)N3CCN(c4ccccc4)CC3)cn12	12%	0%
O=C(NCc1cccnc1)c1cc(C2CCCCN2S(=O)(=O)Cc2ccccc2)on1 (stereo not drawn)	2%[18.4 µM]	-9%
O=S(=O)(Nc1ccc(C(O)(C(F)(F)F)C(F)(F)F)cc1)c1cccc2cccnc12	5%	29%
C[C@@H]1CN([C@H](C)CO)C(=O)CCCn2nncc2CO[C@H]1CN(C)Cc1ccc(-c2ccccc2)cc1	-5%	-23%
COC(=O)C[C@H]1C[C@@H]2c3cc(NC(=O)Nc4ccccc4)ccc3O[C@@H]2[C@@H](CO)O1	0%	-9%
Cc1ccc(OCc2nc3ccccc3n2C(C)C(=O)Nc2c(C)cccc2C)cc1 (stereo not drawn)	5%	-7%
COc1ccc2c(c1)C1(C)CCN(C)CC(C1)C2O (stereo not drawn)	0%	20%
c1ccc(N2CCN(c3cccc(-c4cc5ccccc5s4)n3)CC2)nc1	2%	0%
O=C(Nc1ccc2c(c1)[C@H]1C[C@@H](CC(=O)N3CCOCC3)O[C@@H](CO)[C@H]1O2)C1CCOCC1	10%	-10%
COc1ccc(NC(=O)c2ccccc2SCc2ccccc2)cc1	-2%	1%
COc1cccc(CN(C)C[C@@H]2OCc3cnnn3CCCC(=O)N([C@@H](C)CO)C[C@H]2C)c1	-5%	-4%
CC(C)c1ccc(NC(=O)C2(C)Cc3c(-c4ccc5c(c4)OCO5)ccnc3O2)cc1 (stereo not drawn)	0%	-15%
Cc1noc(NS(=O)(=O)c2ccc(NC(=O)c3cc(S(=O)(=O)N(C)c4ccccc4)ccc3Cl)cc2)c1C	1%	-19%
COc1ccccc1-c1cccc([C@@H]2C[C@H]3[C@H](CON3C)CN2C(=O)CCc2ccccc2)c1	7%	-14%
CCCCCCn1cc(CN2CC(N3CCN(C)CC3)CS2(=O)=O)nn1 (stereo not drawn)	8%	-16%
CC1(C(=O)NS(=O)(=O)Cc2cccc(Cl)c2)CCN1C(=O)C1(c2ccc(Cl)cc2)CCC1 (stereo not drawn)	0%	-9%
CC(C)Oc1cc(F)ccc1-c1cc(C(=O)NC2CCCCC2)[nH]n1	-28%	-10%
O=C(CN1CCOCC1)N1c2ccccc2Sc2ccc(Cl)cc21	2%	0%
COc1ccc(C(C)NC(=O)C2CCN(CCCc3ccccc3)CC2)cc1OC (stereo not drawn)	19%	-12%
C=CCn1nc(C(=O)OCC)cc1-c1sc(NC(=O)c2ccccc2)nc1C	1%	?

2 entries from above, set out differently:
smiles | RE007 growth inh | StopGo reporter
O=C(/C=C/[C@H]1O[C@@H](n2ccc(=O)[nH]c2=O)[C@H](O)[C@@H]1O)NCc1cccc2ccccc12 | 11% | -14%
CC(=O)Nc1cc(-c2cccc(NS(C)(=O)=O)c2)cn2c(-c3cccc(C(F)(F)F)c3)cnc12 | 2% | -26%
